FGF22 binding: binders of human FGF22 protein, primary screen, FGF22 synaptogenesis inhibitor project, biophysical, thermal shift, single point. Fibroblast growth factor 22 (Homo sapiens), Q9HCT0. recombinant FGF22 thermal shift, SYPRO orange fluorescence; percent of sucrose octasulfate shift, DMSO zero. calls only at 9.99 µM. 340,000 tested, 1.5% active. AID 651658, 2012;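 active = melting point raised past a set limit in the mean and every replicate; three in four hits are not shown here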
Target sequence (Q9HCT0 whole entry, looked up): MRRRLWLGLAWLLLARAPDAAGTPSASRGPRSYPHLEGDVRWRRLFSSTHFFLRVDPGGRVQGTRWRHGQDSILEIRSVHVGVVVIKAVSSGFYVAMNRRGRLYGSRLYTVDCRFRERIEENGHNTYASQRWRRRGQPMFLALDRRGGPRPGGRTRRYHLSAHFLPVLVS
AF4-AF9 inh: inhibitors of AF4 peptide binding to AF9, primary screen, biochemical, AlphaScreen, biotin-AF4 peptide, FLAG-AF9, single point; AID 651704, 2012; 350,000 tested, 0.47% active; inhibition, % at 10 µM;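 active = every replicate reaching a set inhibition limit, whatever the replicate mean, cut at about 25% in these data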;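 note: 0% = plate neutral control median and 100% = total signal loss; the record names both 10 and 1 µM as test concentration; the first replicate is given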
Target sequence (P42568 whole entry, looked up): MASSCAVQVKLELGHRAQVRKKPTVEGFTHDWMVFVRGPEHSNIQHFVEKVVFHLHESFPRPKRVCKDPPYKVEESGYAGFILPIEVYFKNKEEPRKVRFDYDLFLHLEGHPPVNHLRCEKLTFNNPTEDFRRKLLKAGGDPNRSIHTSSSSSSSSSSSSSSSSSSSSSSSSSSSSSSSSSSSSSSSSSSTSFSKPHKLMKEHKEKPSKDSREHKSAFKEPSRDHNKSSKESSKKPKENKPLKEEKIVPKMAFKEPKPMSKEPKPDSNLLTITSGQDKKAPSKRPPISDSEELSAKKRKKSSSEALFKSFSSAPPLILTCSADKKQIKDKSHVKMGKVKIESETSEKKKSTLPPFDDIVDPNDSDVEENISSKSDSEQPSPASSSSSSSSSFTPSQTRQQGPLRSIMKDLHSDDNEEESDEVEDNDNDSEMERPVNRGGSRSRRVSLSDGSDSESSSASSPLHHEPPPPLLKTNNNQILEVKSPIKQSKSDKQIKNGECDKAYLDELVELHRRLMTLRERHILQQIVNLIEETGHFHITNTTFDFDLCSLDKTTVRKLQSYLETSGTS
rRNA inh HTS: reduced GFP signal of wild-type E. coli, primary screen, bacterial rRNA inhibitor project, GFP/RFP fluorescence, OD600, single point. E. coli WT GFP vs humanized-ribosome RFP mutants, 24 h; stronger effect = lower value; DMSO median 0, no signal -100. GFP signal change (wild-type ribosome), % (concentration not given with the values). 350,000 tested, 1.6% active;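 active = significant combined selectivity score with lowered wild-type GFP, culture density cut under 30%, mutant RFP and density less affected; inactive = any of these conditions unmet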; note: one replicate is shown; some compounds called inactive have numbers as strong as hits
rRNA inh HTS OD600: second read-out of rRNA inh HTS, no call of its own (marks repeat the call); OD600 change, %; measured here: OD600 growth;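 optical density of the mix in the first replicate; 0 = DMSO median and -100 = no signal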
rRNA inh HTS RFP: recorded beside rRNA inh HTS, whose call it bears; RFP signal change, %; measured here: RFP humanized mutant strains;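 first replicate; 0 = DMSO median and -100 = no signal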
* marks the source's active call; other numbers are inactive results; i = inactive; & = joins results of further samples. Not all compounds are listed; rates above refer to the full screens.

SMILES	FGF22 binding	AF4-AF9 inh	rRNA inh HTS	rRNA inh HTS OD600	rRNA inh HTS RFP
CCOC(=O)c1cc2c(c(-c3cccc(-c4cccc(F)c4)c3)n1)[C@H](CCO)N(S(=O)C(C)(C)C)C2 (some centres not stated)	i	2.0	-3	6	6.9
CC=Cc1ccc2n(c1=O)C[C@@H]1[C@@H](CO)[C@H](C(=O)Nc3ccccc3)N(CC3CCCC3)[C@H]21 (mixture of isomers)	i	3.8	-9	-35	20
CC1CNC(=S)N(c2ccccc2)C1=O (configuration not stated)	i	-2.5	5	12	-1.2
O=C(C[C@@H]1CC[C@H](NC(=O)c2cnccn2)[C@@H](CO)O1)NCc1ccccc1F	i	-0.1	0	3	0.4
CC(C)C#Cc1ccc2c(c1)O[C@H](CN(C)C(=O)Cc1ccccn1)[C@H](C)CN([C@@H](C)CO)S2(=O)=O	i	-1.2	0	10	0.8
COc1ccc2c3c([nH]c2c1)[C@@H](CO)N(Cc1cc(F)ccc1F)CC31CN(C(C)=O)C1	i	-2.1	-1	-5	2.5
C[C@H]1CN([C@@H](C)CO)C(=O)CCCn2cc(nn2)CO[C@H]1CN(C)S(=O)(=O)c1ccccc1C#N	i	0.0	0	1	-0.9
C[C@@H]1CN([C@H](C)CO)C(=O)c2cccc(NC(=O)Nc3ccc(F)cc3)c2O[C@@H]1CN(C)Cc1ccc(Oc2ccccc2)cc1	i	3.8	-5	-27	7.2
COc1ccc(S(=O)(=O)Nc2ccc3c(c2)C(=O)N([C@@H](C)CO)C[C@@H](C)[C@@H](CN(C)C(=O)Nc2ccc(F)cc2)O3)cc1	i	0.3	3	-4	-1.4
CC(C)NC(=O)N(C)C[C@H]1OCCCC[C@H](C)Oc2ccc(NS(=O)(=O)c3cn(C)cn3)cc2C(=O)N([C@@H](C)CO)C[C@@H]1C	i	0.8	6	13	-0.3
CC(=O)N(C)C[C@H]1Oc2cc(C#Cc3ccccc3)ccc2S(=O)(=O)N([C@H](C)CO)C[C@@H]1C	i	0.9	-8	-18	0.7
COc1ccc(NC(=O)N[C@H]2CC[C@@H](CC(=O)NC3CCCCC3)O[C@H]2CO)cc1	i	0.1	-2	3	1.5
CN(C)C(=O)CCc1ccc2c3c([nH]c2c1)[C@]1(CCc2ccccc2)[C@@H](C(=O)N2CCCCC2)C[C@H](CC(=O)NC(C)(C)C)C(=O)N1CC3	i	1.5	-9	-9	-1.6
C[C@@H]1CN([C@@H](C)CO)C(=O)c2cc(C#CCN(C)C)cnc2O[C@@H]1CN(C)Cc1ccc(F)cc1	i	9.7	1	9	-1.0
Cc1ccc(S(=O)(=O)Nc2cccc3c2O[C@H](CN(C)S(=O)(=O)c2ccc(C)cc2)[C@@H](C)CN([C@H](C)CO)C3=O)cc1	i	0.7	0	0	1.8
Cc1ccc(S(=O)(=O)Nc2ccc3c(c2)C(=O)N([C@@H](C)CO)C[C@@H](C)[C@H](CN(C)CC2CCCCC2)OCCCC[C@H](C)O3)cc1	i	8.0	-4	-26	19
CNC[C@@H]1Oc2ccc(NS(=O)(=O)c3ccc(OC)cc3)cc2C(=O)N([C@H](C)CO)C[C@@H]1C	i	-1.3	3	0	0.9
CCCN1C[C@@H](C)[C@@H](OC)CN(C)C(=O)c2ccc(NC(=O)C3CC3)cc2OC[C@H]1C	i	-1.8	3	3	-1.1
CC(=O)c1sc(NC(=O)C2CCCN2S(=O)(=O)c2ccccc2F)nc1C (configuration not stated)	i	7.6	7	14	-4.2
C[C@@H]1CN([C@H](C)CO)C(=O)Cc2cc(NC(=O)c3ccncc3)ccc2O[C@H]1CN(C)Cc1ccc(C(=O)Nc2ccccc2N)cc1	i	-1.5	-4	2	-1.5

Looked up above:
COc1ccc(NC(=O)N[C@H]2CC[C@@H](CC(=O)NC3CCCCC3)O[C@H]2CO)cc1 @ AF4-AF9 inh: 0.1
CC(C)C#Cc1ccc2c(c1)O[C@H](CN(C)C(=O)Cc1ccccn1)[C@H](C)CN([C@@H](C)CO)S2(=O)=O @ rRNA inh HTS: 0
Cc1ccc(S(=O)(=O)Nc2ccc3c(c2)C(=O)N([C@@H](C)CO)C[C@@H](C)[C@H](CN(C)CC2CCCCC2)OCCCC[C@H](C)O3)cc1 @ AF4-AF9 inh: 8.0
COc1ccc2c3c([nH]c2c1)[C@@H](CO)N(Cc1cc(F)ccc1F)CC31CN(C(C)=O)C1 @ rRNA inh HTS: -1
O=C(C[C@@H]1CC[C@H](NC(=O)c2cnccn2)[C@@H](CO)O1)NCc1ccccc1F @ AF4-AF9 inh: -0.1
CN(C)C(=O)CCc1ccc2c3c([nH]c2c1)[C@]1(CCc2ccccc2)[C@@H](C(=O)N2CCCCC2)C[C@H](CC(=O)NC(C)(C)C)C(=O)N1CC3 @ rRNA inh HTS: -9
CC=Cc1ccc2n(c1=O)C[C@@H]1[C@@H](CO)[C@H](C(=O)Nc3ccccc3)N(CC3CCCC3)[C@H]21 (mixture of isomers) @ AF4-AF9 inh: 3.8

Continuation.
SMILES	FGF22 binding	AF4-AF9 inh	rRNA inh HTS	rRNA inh HTS OD600	rRNA inh HTS RFP
COc1ccc(OC)c(NC(=O)Nc2nc(C(N)CCc3ccccc3)cs2)c1 (configuration not stated)	i	28*	-57	-80	-16
CCNC(=O)C1CCCN(Cc2cc(C(F)(F)F)ccc2Cl)CC1 (configuration not stated)	i	4.0	-1	-6	-1.2
CO[C@@H](CN(C)CC1CCOCC1)[C@H](C)CN(C(=O)Nc1ccc(F)cc1)[C@@H](C)CO	i	-1.0	7	18	-0.5
C[C@@H]1CN([C@@H](C)CO)C(=O)Cc2cc(NC(=O)Nc3ccc(C(F)(F)F)cc3)ccc2O[C@@H]1CN(C)S(=O)(=O)c1ccccc1	i	1.4	8	5	1.9
Cc1cccc(OCCCC(=O)NNC(=O)c2ccncc2)c1	i	12	3	-3	1.7
CCCNC(=O)[C@@H]1[C@@H](CO)[C@@H]2Cn3c(ccc(C4=CCCC4)c3=O)[C@@H]2N1C(=O)CC	i	-0.8	3	2	-0.4
COc1ccc(-n2ncc3c(SCC(=O)OC(C)C)ncnc32)cc1	i	-1.3	0	-2	-0.3
O=C(Nc1ccc2c(c1)OCO2)N[C@@H]1CC[C@H](CCNC(=O)C2CCC2)O[C@H]1CO	i	-1.7	-1	-3	-0.3
COCC(=O)Nc1ccc2c(c1)[C@H]1C[C@@H](CC(=O)N3CCOCC3)O[C@H](CO)[C@H]1O2	i	2.3	1	7	-1.1
CN(C[C@H]1[C@H](c2ccccc2)[C@@H](CO)N1C(=O)c1ccccc1)C(=O)C1CC1	i	-2.2	-1	6	-3.0
Cc1ccc(C)c(C(O)c2ncc(-c3ccc4ccccc4c3)[nH]2)c1 (configuration not stated)	i	-5.0	-37	-52	-9.5
COC(=O)[C@]1(C)N[C@H](CN(C)C(=O)c2ccc(C)cc2)[C@@H]2C(=O)N(C)C(=O)[C@@H]21	i	-0.3	18	6	-0.3
O=S1(=O)CC(N2CCN(CCO)CC2)CN1Cc1cn(Cc2ccccc2C(F)(F)F)nn1 (configuration not stated)	i	-1.6	-1	6	-1.6
CCCNC(=O)C[C@H]1CC[C@H]2[C@H](COc3ccc(NC(=O)c4cc(C)on4)cc3C(=O)N2C)O1	i	-15	-2	2	-2.6
O=c1cc(C=NNc2ccccc2)[nH]c(=O)[nH]1	i	-30	3	11	2.5
C[C@H]1NC(=O)[C@]2(C)[C@@H](c3ccccc3)[C@H]3COc4ccccc4[C@@H]3N2C1=O	i	-3.1	5	15	4.2
COc1cccc(S(=O)(=O)N[C@H]2CC[C@@H](CCn3cc(-c4ccccc4)nn3)O[C@@H]2CO)c1	i	0.6	0	4	0.5
C[C@@H]1CCCCO[C@H](CN(C)S(=O)(=O)c2ccc(Cl)cc2)[C@@H](C)CN([C@@H](C)CO)C(=O)c2cc(NS(=O)(=O)c3ccc(Cl)cc3)ccc2O1	i	-1.7	5	5	-0.9
COc1ccc(CN(C)C[C@@H]2Oc3c(NC(=O)c4ccncc4)cccc3C(=O)N([C@@H](C)CO)C[C@H]2C)cc1	i	2.0	-7	-7	-5.0
O=S(=O)(N[C@@H]1CC[C@H](CCn2cc(C3CC3)nn2)O[C@H]1CO)c1ccc(Cl)cc1	i	-1.9	-1	-6	-0.7

Structures listed above that bear a hit mark in AF4-AF9 inh:
structure | AF4-AF9 inh | rRNA inh HTS | rRNA inh HTS OD600 | rRNA inh HTS RFP
COc1ccc(OC)c(NC(=O)Nc2nc(C(N)CCc3ccccc3)cs2)c1 (configuration not stated) | 28* | -57 | -80 | -16

(listing goes on)
SMILES	FGF22 binding	AF4-AF9 inh	rRNA inh HTS	rRNA inh HTS OD600	rRNA inh HTS RFP
C[C@@H]1CN([C@H](C)CO)C(=O)c2cc(NC(=O)CCC(F)(F)F)ccc2O[C@H]1CN(C)Cc1ccccc1	i	-2.0	3	5	-3.0
CCS(=O)(=O)N1CCCCN2[C@H](CO)[C@H](c3ccc(-c4ccccc4F)cc3)[C@H]2C1	i	3.2	0	-8	0.7
C[C@@H]1CN([C@@H](C)CO)C(=O)c2cc(NS(C)(=O)=O)ccc2O[C@@H](C)CCCCO[C@@H]1CN(C)S(=O)(=O)c1cccs1	i	-0.8	0	0	-0.6
CC(C)CC#Cc1ccc2c(c1)O[C@H](CN(C)C(=O)Nc1ccccc1)[C@@H](C)CN([C@H](C)CO)S2(=O)=O	i	-1.2&0.4&2.6	-4&-3	5&-4	-4.7&-0.7
Cc1ccccc1S(=O)(=O)N[C@H]1CC[C@@H](CCn2cc(-c3ccccc3)nn2)O[C@@H]1CO	i	-3.0	-8	-5	1.2
C[C@@H]1CN([C@@H](C)CO)C(=O)c2cc(C#Cc3ccccc3)cnc2O[C@H]1CN(C)C(=O)c1ccccc1F	i	2.9&0.3&2.8	3&2	3&-11	8.3&1.5
O=C(C1CCCCC1)N1[C@H](CO)[C@@H]2c3ccccc3NC[C@@H]21	i	-1.2	2	4	-0.4
O=C(C[C@H]1C[C@@H]2c3cc(NC(=O)NC4CCCC4)ccc3O[C@@H]2[C@H](CO)O1)NC1CCCCC1	i	0.2	1	4	-1.8
COCC(=O)Nc1ccc2c(c1)OC[C@H](C)N(C(=O)NC(C)C)C[C@H](C)[C@@H](OC)CN(C)C2=O	i	-1.9	0	-3	-1.9
O=C(Nc1ccc(C(F)(F)F)cc1)N[C@H]1C=C[C@@H](CC(=O)N2CCCCC2)O[C@@H]1CO	i	1.7	-3	-14	1.4
COc1ccc(CN(C)C[C@@H]2Oc3ccc(NC(=O)C4CCCCC4)cc3CC(=O)N([C@H](C)CO)C[C@H]2C)cc1	i	-0.3	-2	0	-1.1
COc1ccc2c3c(n(C)c2c1)[C@H](CO)N(Cc1ccc2c(c1)OCO2)CC31CN(C(C)=O)C1	i	0.3	-3	8	-2.8
OC[C@H]1[C@H](c2ccc(-c3cccnc3)cc2)[C@@H]2CN(CC3CC3)CCCCN12	i	2.1	9	32	-1.6
CCN(C[C@@H]1N[C@H](CO)[C@H]1c1ccc(-c2ccc(F)cc2)cc1)C(=O)COC	i	-1.3	0	-6	0.9
CC(=O)NC[C@H]1[C@@H](c2ccccc2)[C@H](CO)N1C(=O)Cc1cccnc1	i	0.2	0	3	-0.9
C[C@H]1CCCCO[C@H](CN(C)CC2CCCCC2)[C@@H](C)CN([C@@H](C)CO)C(=O)c2cc(NC(=O)c3ccccc3)ccc2O1	i	-0.3	-5	-8	3.2
C[C@@H]1CCCCO[C@@H](CN(C)S(=O)(=O)c2ccccc2)[C@@H](C)CN([C@H](C)CO)C(=O)c2cc(NS(=O)(=O)c3cccs3)ccc2O1	i	-3.3	0	8	-1.5
C[C@H](CO)N1C[C@H](C)[C@@H](CN(C)C(=O)Cc2ccccc2)OCCCC[C@H](C)Oc2ccc(NS(=O)(=O)c3cccs3)cc2C1=O	i	3.0	-2	-13	3.2
COc1ccc2c3c(n(C)c2c1)[C@@H](CO)N(C(=O)CN(C)C)CC31CN(S(C)(=O)=O)C1	i	3.0	3	10	-2.4
COc1ccc(S(=O)(=O)N[C@H]2CC[C@@H](CC(=O)N3CCN(c4ccccc4)CC3)O[C@H]2CO)cc1	i	-0.2	-4	5	-0.7
CCCC(=O)Nc1ccc2c(c1)OC[C@H](C)N(Cc1ccccc1F)C[C@H](C)[C@@H](OC)CN(C)C2=O	i	1.5	-5	-18	6.6
C[C@@H]1CN([C@H](C)CO)C(=O)c2c(c3ccccc3n2C)-c2ccccc2CO[C@H]1CN(C)S(=O)(=O)c1cccc(C#N)c1	i	-0.4	0	8	-1.4
Cc1noc(C)c1S(=O)(=O)N(C)C[C@@H]1OCCCC[C@H](C)Oc2ccc(NC(=O)Nc3ccc(F)cc3)cc2C(=O)N([C@H](C)CO)C[C@H]1C	i	0.0	2	-3	0.4
CCCN1C[C@H](C)[C@H](OC)CN(C)C(=O)c2ccc(NS(C)(=O)=O)cc2OC[C@H]1C	i	-2.6	4	3	-1.5
CC(C)[C@H]1COCc2cn(nn2)CC[C@@H](Cc2ccccc2)C(=O)N1	i	-1.1	2	-12	-0.6
COCC#Cc1cnc2c(c1)C(=O)N([C@@H](C)CO)C[C@H](C)[C@@H](CN(C)S(=O)(=O)c1cccc(OC)c1)O2	i	-0.6	-2	2	-3.0
O=C(c1ccccc1)c1coc(-c2ccccc2)c1	i	-2.9	5	7	0.4

Bioassay records (PubChem)
